Screens: PubChem BioAssay, ICCB-Longwood Screening Facility, Harvard Medical School
RVFV N-RNA FP: inhibitors of Rift Valley Fever Virus nucleocapsid-RNA interaction. RVFV N-RNA binding, fluorescence polarization; hits give low values. P21700. 20,000 tested, 0.1% active. % bound, % (concentration not given with the values);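 active = between 0 and 58% in either replicate with normal brightness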;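 also: 100 nL library stock added to about 12 µL; 100% = protein and probe without compound and 0% = probe alone; numbers are from one replicate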
Target sequence (P21700 whole entry, looked up): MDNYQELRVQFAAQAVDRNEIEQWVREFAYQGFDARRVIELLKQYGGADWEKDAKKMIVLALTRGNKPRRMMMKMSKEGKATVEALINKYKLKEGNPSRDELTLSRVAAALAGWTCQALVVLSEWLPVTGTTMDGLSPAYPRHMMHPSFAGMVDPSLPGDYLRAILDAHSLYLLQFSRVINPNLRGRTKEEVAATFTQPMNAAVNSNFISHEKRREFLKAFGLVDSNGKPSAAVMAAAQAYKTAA
* = called active by the depositor; & = joins results of further samples.

SMILES	RVFV N-RNA FP
CN(C(=O)CCCOc1ccc2[nH]c(=O)ccc2c1)C1CCCCC1	91&93
CC(=O)c1ccc(S(=O)(=O)NC(=O)NC2CCCCC2)cc1	106
CC1COc2c(N3CCN(C)CC3)c(F)cc3c(=O)c(C(=O)O)cn1c23 (configuration not stated)	98&96&96
NC(=O)c1cn(Cc2c(F)cccc2F)nn1	100
O=C(O)c1ccc[n+]([O-])c1	110
CC1=CC(=O)NS(=O)(=O)O1	102
CCN(CC)CCn1c(=O)c(Cc2ccc(OC)cc2)nc2ccccc21	101
COCCCOc1cc(C[C@@H](C[C@H](N)[C@@H](O)C[C@H](C(=O)NCC(C)(C)C(N)=O)C(C)C)C(C)C)ccc1OC	100
CC(=O)Nc1ccc(C(=O)O)cc1	97
COc1ccc(/C=C/C(=O)Nc2ccccc2C(=O)O)cc1OC	94&93&93
CC(N)C1CCC(C(=O)Nc2ccncc2)CC1 (configuration not stated)	98
O=C(CCNNC(=O)c1ccncc1)NCc1ccccc1	98&101&95
OCCN1CCN(CCCN2c3ccccc3Sc3ccc(Cl)cc32)CC1	102&95
CC(C)C(=O)Nc1cccc(C(F)(F)F)c1	95
CCN(CC)CCNC(=O)c1cc(Cl)c(N)cc1OC	97&106&89
COc1ccc(C(=O)NCc2ccc(OCCN(C)C)cc2)cc1OC	100&98&110
COc1cc2ncnc(Nc3cccc(O)c3)c2cc1OC	107
CN(C)CCOC(C)(c1ccccc1)c1ccccn1 (configuration not stated)	94&95
COc1ccccc1N1CCN(CCCNc2cc(=O)n(C)c(=O)n2C)CC1	98&96
CC(COc1ccccc1)NC(C)C(O)c1ccc(O)cc1 (configuration not stated)	99
NC(N)=NCCC[C@H](N)C(=O)O	97
O=C(c1ccc(F)cc1)C1CCN(CCn2c(=O)[nH]c3ccccc3c2=O)CC1	96&89
O=C1Cc2c([nH]c3ccc(Br)cc23)-c2ncccc2N1	110
C[C@]12CCC(=O)C=C1CC[C@@H]1[C@@H]2CC[C@@]2(C)[C@H]1CC[C@]2(O)C(=O)CO	102
Oc1ccc(/C=C/c2cc(O)cc(O)c2)cc1	95

A portion taken from the entries so far:
SMILES	RVFV N-RNA FP
CN(C(=O)CCCOc1ccc2[nH]c(=O)ccc2c1)C1CCCCC1	91&93
CC(=O)c1ccc(S(=O)(=O)NC(=O)NC2CCCCC2)cc1	106
CC1COc2c(N3CCN(C)CC3)c(F)cc3c(=O)c(C(=O)O)cn1c23 (configuration not stated)	98&96&96

Back to the main list with the 8 entries that preceded the break.
SMILES	RVFV N-RNA FP
CN(C)CCOC(C)(c1ccccc1)c1ccccn1 (configuration not stated)	94&95
COc1ccccc1N1CCN(CCCNc2cc(=O)n(C)c(=O)n2C)CC1	98&96
CC(COc1ccccc1)NC(C)C(O)c1ccc(O)cc1 (configuration not stated)	99
NC(N)=NCCC[C@H](N)C(=O)O	97
O=C(c1ccc(F)cc1)C1CCN(CCn2c(=O)[nH]c3ccccc3c2=O)CC1	96&89
O=C1Cc2c([nH]c3ccc(Br)cc23)-c2ncccc2N1	110
C[C@]12CCC(=O)C=C1CC[C@@H]1[C@@H]2CC[C@@]2(C)[C@H]1CC[C@]2(O)C(=O)CO	102
Oc1ccc(/C=C/c2cc(O)cc(O)c2)cc1	95
CC[N+](C)(CC)CCOC(=O)C(O)(c1ccccc1)C1CCCCC1 (configuration not stated)	95
COc1cc2c(cc1OC)C(=O)C(CC1CCN(Cc3ccccc3)CC1)C2 (configuration not stated)	94
CCC(C)n1ncn(-c2ccc(N3CCN(c4ccc(OCC5COC(Cn6cncn6)(c6ccc(Cl)cc6Cl)O5)cc4)CC3)cc2)c1=O (configuration not stated)	103&97
CCCCCCCCCCCCCCC[C@H](O)[C@H](N)CO	93
CCCn1cnc2c1c(=O)n(CCCCC(C)=O)c(=O)n2C	98
COc1cc2c(cc1OC)C(=O)CC2	96
CC(=O)c1ccc2c(c1)N(CCCN(C)C)c1ccccc1S2	99
Cn1c(=O)c2c(ncn2CC2OCCO2)n(C)c1=O	98
N#C/C(=C1/Nc2ccccc2S1)c1ccnc(NCCc2cccnc2)n1	105
Cc1nc2ccccn2c(=O)c1CCN1CCC(C(=O)c2ccc(F)cc2)CC1	96&97
NC(=O)c1cccc(-c2cc(Nc3ccc(OC(F)(F)F)cc3)ncn2)c1	114
O=S(=O)(c1cccc2cnccc12)N1CCCNCC1	92&100
c1ccc(CC2=NCCN2)cc1	92
C[C@@H](N)C1CCC(C(=O)Nc2ccncc2)CC1 (some centres not stated)	102

Some of the entries so far, with bars between the fields.
Molecule | RVFV N-RNA FP
CC(=O)c1ccc2c(c1)N(CCCN(C)C)c1ccccc1S2 | 99
Cc1nc2ccccn2c(=O)c1CCN1CCC(C(=O)c2ccc(F)cc2)CC1 | 96&97
NC(=O)c1cccc(-c2cc(Nc3ccc(OC(F)(F)F)cc3)ncn2)c1 | 114
CCC(C)n1ncn(-c2ccc(N3CCN(c4ccc(OCC5COC(Cn6cncn6)(c6ccc(Cl)cc6Cl)O5)cc4)CC3)cc2)c1=O (configuration not stated) | 103&97
c1ccc(CC2=NCCN2)cc1 | 92
CCCCCCCCCCCCCCC[C@H](O)[C@H](N)CO | 93

These rows are one share of the data; the hit share may differ from the screen's.
